Mtb betalactam = beta-lactam sensitization of Mtb H37Rv | M. tuberculosis H37Rv growth with meropenem, percent inhibition; hits of this screen are not shown here | inhibition, % at 25 µM | 330,000 tested, 0.27% active;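 active means about 74% or more and at least 40 points above the plate without the antibiotic, then above 30% in a dose series; inconclusive means first-round hits that could not be retested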;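 further: growth measured after seven days incubation then overnight dye step; 0% = bacteria only wells and 100% = bacteria with antibiotic; twin plates without the antibiotic show which effects depend on it; some results filed as inactive read as strong as hits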
YopH PTP inh = inhibitors of Yersinia enterocolitica YopH tyrosine phosphatase. fluorescence Ex485/Em525. inhibition, %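 (about 10 µM by stock and volumes)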. 140,000 tested, 0.16% active. AID 898;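 active means inhibition of 50% or more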;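 further: controls were vehicle for no effect and minimum signal wells for full effect; inactives centre near -20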
Arbovirus inh = arbovirus infection inhibition; arbovirus infection cell-based antiviral screen; inhibition, % at 10 µM; 200,000 tested, 0.37% active;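 active means inhibition from about 30%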;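 further: bluetongue infection of BSR cells; cell survival read as ATP light after 72 h; 0% = infected wells without compound and 100% = uninfected wells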
Mtb growth = M. tuberculosis H37Rv growth inhibitors, H37Rv strain (AID 1626). M. tuberculosis H37Rv growth inhibition; higher % means a stronger effect. inhibition, % at 10 µM, or IC50 in µM where a hit was titrated. 220,000 tested, 0.95% active;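 active means confirmed in a dose series; inconclusive means inhibition above 80% but not taken into the dose series; inactive means below 80% or under 30% at every dose of the series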;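 further: bacteria incubated seven days before Alamar blue readout; 0% = bacteria only wells and 100% = bacteria with antibiotic wells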
RecA splice inh = blocks M. tuberculosis RecA intein splicing. P9WHJ3. cell-free RecA intein splicing, fluorescence. inhibition, %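 (about 9 µM by stock and volumes)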. 290,000 tested, 0.75% active; in the data active means inhibition above about 30%; inconclusive means no clear call, values can overlap the other calls;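 further: 0% = vehicle wells and 100% = reference inhibitor control wells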
Target sequence (P9WHJ3 whole entry, looked up, canonical isoform): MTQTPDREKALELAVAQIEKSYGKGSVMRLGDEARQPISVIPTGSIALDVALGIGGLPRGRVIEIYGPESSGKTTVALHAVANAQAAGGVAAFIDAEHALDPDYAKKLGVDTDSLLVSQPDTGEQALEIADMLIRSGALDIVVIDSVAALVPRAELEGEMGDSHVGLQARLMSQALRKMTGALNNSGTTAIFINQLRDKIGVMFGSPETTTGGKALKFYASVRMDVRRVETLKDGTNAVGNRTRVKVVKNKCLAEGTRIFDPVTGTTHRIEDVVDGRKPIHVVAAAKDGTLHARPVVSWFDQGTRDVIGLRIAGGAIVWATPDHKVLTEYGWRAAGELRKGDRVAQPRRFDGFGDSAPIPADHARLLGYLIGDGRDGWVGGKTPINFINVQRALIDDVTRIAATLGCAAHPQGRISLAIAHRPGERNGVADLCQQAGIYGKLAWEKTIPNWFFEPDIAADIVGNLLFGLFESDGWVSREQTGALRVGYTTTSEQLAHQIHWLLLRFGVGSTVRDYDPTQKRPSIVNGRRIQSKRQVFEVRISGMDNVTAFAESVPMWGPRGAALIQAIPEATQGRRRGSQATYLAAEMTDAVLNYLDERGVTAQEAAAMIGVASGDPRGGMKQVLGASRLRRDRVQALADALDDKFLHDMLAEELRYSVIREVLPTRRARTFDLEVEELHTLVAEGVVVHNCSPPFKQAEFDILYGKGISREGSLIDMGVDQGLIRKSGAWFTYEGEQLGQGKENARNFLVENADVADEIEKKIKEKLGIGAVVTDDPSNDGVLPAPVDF
Arbovirus inh repeat = second read-out of Arbovirus inh, no call of its own (marks repeat the call); inhibition, %; measured here: 10K subset replicate screen; many hits read low in the repeat;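 first of two repeat runs on a subset; 0% = infected and 100% = uninfected wells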
* = called active by the depositor; & = joins results of further samples. Some of the compounds tested, so the mix of outcomes need not match the whole.

Results for CC(C)NC(=O)c1ccc(-n2c(=S)[nH]c3ccccc3c2=O)cc1 ?
Mtb betalactam: 11; Arbovirus inh: -3; Mtb growth: -4%; RecA splice inh: 0.7

What do the screens show for `Cc1ccc(S(=O)(=O)N2CCC(C(=O)NC3CCCC3)CC2)cc1Cl`?
Mtb betalactam: -9; RecA splice inh: 0.0

How did Cc1cc(C)c(NC(=O)CC(C)(C)C)c(Cl)c1 do in these assays?
YopH PTP inh: -37; Arbovirus inh: 1; Mtb growth: -2%; RecA splice inh: -0.6

What do the screens show for `CC(C)OCP(=O)(c1ccccc1)c1ccccc1`?
Mtb betalactam: 6; YopH PTP inh: -36; Arbovirus inh: 1; Mtb growth: 1%; RecA splice inh: -4.5

How did CC1CCCCC1NC(=O)CO/N=C/c1ccc(OC(F)F)cc1 (centres undefined) do in these assays?
Mtb betalactam: -2; Arbovirus inh: 11; Mtb growth: 1%; RecA splice inh: -1.1

Results for CCOC(=O)N1CCN(C(=O)c2cnn(-c3ccccc3)c2NC(=O)c2ccccc2F)CC1 ?
Mtb betalactam: -7; Arbovirus inh: 7; Mtb growth: -10%; RecA splice inh: 3.3; Arbovirus inh repeat: 1

Results for COc1ccccc1C(=O)N/C(=C\c1cn(C)c2ccccc12)C(=O)NCCCn1ccnc1 ?
Mtb betalactam: 10; RecA splice inh: 0.4

How did COC(=O)CCCNC(=O)CC1C(=O)NCCN1Cc1ccoc1 (centres undefined) do in these assays?
Mtb betalactam: 9; Arbovirus inh: 4; Mtb growth: 1%; RecA splice inh: 3.3

Results for Cc1ccccc1C(=O)NC(CC(C)C)C(=O)NN1C(=O)c2ccccc2C1=O (centres undefined) ?
Mtb betalactam: -3; Arbovirus inh: 6; Mtb growth: -3%; RecA splice inh: 1.4

Results for CCCCN1C(=O)C2C3C=CC(C2C1=O)C1C2C(=O)N(CCCC)C(=O)C2C31 (centres undefined) ?
Mtb betalactam: 1; YopH PTP inh: -25; Arbovirus inh: 1; Mtb growth: -10%; RecA splice inh: -0.7

Results for Cc1ccc(/C=N/c2sc3c(c2C#N)CCC3)o1 ?
Mtb betalactam: 1; YopH PTP inh: 7; Arbovirus inh: 7; Mtb growth: -3%; RecA splice inh: 3.1

What do the screens show for `O=C(c1ccc2nc(N3CCCCC3)sc2c1)N1CCN(c2ccccn2)CC1`?
Mtb betalactam: 1; Arbovirus inh: -12; RecA splice inh: 2.1; Arbovirus inh repeat: -3

What do the screens show for `CCN1CCN(CC(=O)n2c3c(c4ccccc42)CC(C)CC3)CC1` (centres undefined)?
Mtb betalactam: -5; YopH PTP inh: -6; Arbovirus inh: -30; Mtb growth: 7%; RecA splice inh: -7.8

How did CCc1ccc(NC(=O)N2CCCCCC2)cc1 do in these assays?
Mtb betalactam: -12; RecA splice inh: 0.0

How did COc1ccc(C(C)=O)cc1CC(C(=O)c1ccccc1)N(C)C (centres undefined) do in these assays?
Mtb betalactam: -6; YopH PTP inh: -29; Arbovirus inh: -8; Mtb growth: -6%; RecA splice inh: 2.4

What do the screens show for `CCCc1cc(=O)[nH]c2nnc(SCC(=O)Nc3cccc(NC(C)=O)c3)n12`?
Mtb betalactam: -10; RecA splice inh: -1.4

How did Cc1ccc(NC(=O)C2CC(=O)N(c3ccc4c(c3)OCCO4)C2)nc1 (centres undefined) do in these assays?
Mtb betalactam: 0; RecA splice inh: -1.2

How did CCOC(=O)c1c(C)[nH]c(C(=O)CSc2nccc(C)n2)c1C do in these assays?
Mtb betalactam: -3; YopH PTP inh: -20; Arbovirus inh: -5; Mtb growth: 4%; RecA splice inh: 0.7

How did COc1cc(CC(=O)Nc2nccs2)cc(OC)c1OC do in these assays?
Mtb betalactam: 1; YopH PTP inh: -15; Arbovirus inh: 15; Mtb growth: 0%; RecA splice inh: -5.3

How did COC(=O)C(NC(C)=O)(Nc1nc2ccc(S(C)(=O)=O)cc2s1)C(F)(F)F (centres undefined) do in these assays?
Mtb betalactam: -2; YopH PTP inh: -25; Arbovirus inh: 2; Mtb growth: -5%; RecA splice inh: -5.3

How did COc1ccc(CCNC(=O)CCCOc2cccc(C)c2C)cc1OC do in these assays?
Mtb betalactam: -4; Mtb growth: 10%; RecA splice inh: -1.9

What do the screens show for `Cc1cc(=O)[nH]c(/N=C(\N)Nc2ccc(SC(F)F)cc2)n1`?
Mtb betalactam: -7; Arbovirus inh: -2; Mtb growth: 0%; RecA splice inh: 3.9

Results for CCC(CC)C(=O)NCCc1cc2ccc(C)cc2[nH]c1=O ?
Mtb betalactam: -3; YopH PTP inh: -24; Arbovirus inh: 1; Mtb growth: -3%; RecA splice inh: -3.3; Arbovirus inh repeat: 2

What do the screens show for `CCC(=O)OCC(=O)c1cc(C)n(-c2ccc(Br)cc2)c1C`?
Mtb betalactam: 6; Arbovirus inh: 12; Mtb growth: 21%; RecA splice inh: 2.5

Results for CCOC(=O)c1[nH]c2ccc(C)cc2c1N ?
YopH PTP inh: -34; Arbovirus inh: -6; Mtb growth: -1%; RecA splice inh: -5.1

What do the screens show for `COC(=O)c1ccc(COc2ccc(/C=N/Nc3nc(C)cc(=O)[nH]3)cc2)cc1`?
Mtb betalactam: 1; Mtb growth: 2%; RecA splice inh: -1.0

How did Cc1ccc(C)c(NC(=O)CSc2nnc(-c3ccccc3)o2)c1 do in these assays?
Mtb betalactam: 10; YopH PTP inh: -6; Arbovirus inh: -4; Mtb growth: -7%; RecA splice inh: 0.8; Arbovirus inh repeat: 0

What do the screens show for `Cc1cc(C)c2sc(N(CCCN(C)C)C(=O)c3ccc(Br)s3)nc2c1`?
Mtb betalactam: 22; Arbovirus inh: -29; Mtb growth: 11%; RecA splice inh: 4.5

Results for O=C(NCCN1CCOCC1)c1cc(Sc2cccc(Cl)c2)nc2ccccc12 ?
Mtb betalactam: -2; YopH PTP inh: -25; Arbovirus inh: 1; Mtb growth: 6%; RecA splice inh: 3.6

What do the screens show for `CCCCS(=O)(=O)c1sc2nc3c(cc2c1N)CCCC3`?
Mtb betalactam: 6; YopH PTP inh: -42; Arbovirus inh: 0; Mtb growth: 2%; RecA splice inh: -0.6

Results for Cc1c(C(=O)OCC(=O)c2c(N)n(CC(C)C)c(=O)n(C)c2=O)oc2ccccc12 ?
Mtb betalactam: -8; YopH PTP inh: -5; Arbovirus inh: -2; Mtb growth: 4%; RecA splice inh: -0.2

How did CCOC(=O)c1cc(C(C)(C)C)oc1CNC(=O)c1c(C)oc2c1CCCC2 do in these assays?
Mtb betalactam: -16; YopH PTP inh: -3; Arbovirus inh: 7; Mtb growth: 13%; RecA splice inh: 11

What do the screens show for `CC(=O)Nc1ccc(S(=O)(=O)NCc2nc(-c3ccccc3Cl)no2)cc1`?
Mtb betalactam: 2; RecA splice inh: -1.1

Results for Cc1ccc2[nH]cc(CCNC(=O)c3ccco3)c2c1 ?
Mtb betalactam: 5; RecA splice inh: 1.5

Results for Cc1ccc(C(=S)NCS(=O)(=O)c2ccc(C)cc2)cc1 ?
Mtb betalactam: 27; YopH PTP inh: -19; Arbovirus inh: 2; Mtb growth: 4%; RecA splice inh: 5.4

How did COc1cc(/C=C2/SC(=O)NC2=O)ccc1Oc1ccc([N+](=O)[O-])cc1[N+](=O)[O-] do in these assays?
Mtb betalactam: 82; Mtb growth: 9%; RecA splice inh: 17

Results for N#Cc1ccc(/C=C/C(=O)c2cccnc2)cc1 ?
Mtb betalactam: 100; Arbovirus inh: -27; Mtb growth: 4.8µM*; RecA splice inh: 0.6

How did CCC(CC)c1nnc(NC(=O)C2=NNC(=O)CC2)s1 do in these assays?
Mtb betalactam: -2; Arbovirus inh: 4; Mtb growth: 2%; RecA splice inh: -2.6

Results for CC(=O)Nc1ccc(OS(=O)(=O)c2ccc([N+](=O)[O-])cc2)cc1 ?
Mtb betalactam: 2; Arbovirus inh: -9; Mtb growth: -1%; RecA splice inh: -6.2

Results for CN(C)CCOC(=O)C1(c2ccccc2)CCOCC1 ?
Mtb betalactam: -2&-3; YopH PTP inh: -5&3; Arbovirus inh: 8&9; Mtb growth: -11%&-1%; RecA splice inh: 0.4&-1.9

Results for CC(O)CNc1cc(N)c([N+](=O)[O-])cc1[N+](=O)[O-] (centres undefined) ?
Mtb betalactam: 6; YopH PTP inh: -17; Arbovirus inh: -1; Mtb growth: -3%; RecA splice inh: 0.1

Results for CCOCCCn1c(SCC(=O)NC2CCCC2)nc2ccccc2c1=O ?
Mtb betalactam: 1; RecA splice inh: 2.8

What do the screens show for `Cc1c(O)ccc2c(CC(=O)N[C@@H](Cc3ccccc3)C(=O)O)cc(=O)oc12`?
Mtb betalactam: 5; RecA splice inh: -188

How did COc1cccc(-c2c(C(=O)N/N=C/c3sccc3C)nnn2-c2nonc2N)c1 do in these assays?
Mtb betalactam: 5; RecA splice inh: 1.1

What do the screens show for `COC(C(=O)NCc1ccccc1C)c1ccccc1` (centres undefined)?
Mtb betalactam: -1; YopH PTP inh: -19; Arbovirus inh: -8; Mtb growth: 14%; RecA splice inh: 1.2

Reprinted at random: 2 compounds from above, in no set order.
Results for CC(O)CNc1cc(N)c([N+](=O)[O-])cc1[N+](=O)[O-] (centres undefined) ?
Mtb betalactam: 6; YopH PTP inh: -17; Arbovirus inh: -1; Mtb growth: -3%; RecA splice inh: 0.1

What do the screens show for `Cc1c(O)ccc2c(CC(=O)N[C@@H](Cc3ccccc3)C(=O)O)cc(=O)oc12`?
Mtb betalactam: 5; RecA splice inh: -188

The listing picks up, repeating the 4 entries before the break.
Results for CCOCCCn1c(SCC(=O)NC2CCCC2)nc2ccccc2c1=O ?
Mtb betalactam: 1; RecA splice inh: 2.8

What do the screens show for `Cc1c(O)ccc2c(CC(=O)N[C@@H](Cc3ccccc3)C(=O)O)cc(=O)oc12`?
Mtb betalactam: 5; RecA splice inh: -188

How did COc1cccc(-c2c(C(=O)N/N=C/c3sccc3C)nnn2-c2nonc2N)c1 do in these assays?
Mtb betalactam: 5; RecA splice inh: 1.1

What do the screens show for `COC(C(=O)NCc1ccccc1C)c1ccccc1` (centres undefined)?
Mtb betalactam: -1; YopH PTP inh: -19; Arbovirus inh: -8; Mtb growth: 14%; RecA splice inh: 1.2

How did Cc1ccc(NC(=O)/C(=C/c2ccc([N+](=O)[O-])cc2)NC(=O)c2ccccc2)cc1 do in these assays?
Mtb betalactam: inconclusive; Mtb growth: 12%; RecA splice inh: -16

How did CCCCCn1c(=O)[nH]c2cc(C(=O)NCCCN(C)Cc3ccccc3)ccc2c1=O do in these assays?
Mtb betalactam: 0; Arbovirus inh: -32; Mtb growth: 0%; RecA splice inh: 0.6

How did O=C(O)c1cnn(-c2ccccc2)c1-n1cccc1 do in these assays?
Mtb betalactam: 2; YopH PTP inh: -10; Arbovirus inh: -2; Mtb growth: 8%; RecA splice inh: -0.2

Results for Cc1cc(C)c2c(CN3CCC(C)CC3)cc(=O)oc2c1 ?
Mtb betalactam: 2; RecA splice inh: 2.3

What do the screens show for `Cc1ccc(C2(C)NC(=O)N(CC(=O)Nc3ccc(Cl)c(S(=O)(=O)N4CCCCC4)c3)C2=O)cc1` (centres undefined)?
Mtb betalactam: 0; RecA splice inh: 9.5

How did CCN(CC(O)c1cccc(O)c1)C(=O)C12CC3CC(CC(C3)C1)C2 (centres undefined) do in these assays?
Mtb betalactam: 6; RecA splice inh: -2.5

How did COCCCNC(=O)C1CCC(CNS(=O)(=O)c2ccc(OC)cc2)CC1 (centres undefined) do in these assays?
Mtb betalactam: -3; Arbovirus inh: -1; Mtb growth: 0%; RecA splice inh: -1.2

Results for CCCn1nnnc1NC(=O)c1cc(Cl)ccc1Cl ?
Mtb betalactam: 97; YopH PTP inh: -24; Arbovirus inh: -3; RecA splice inh: 0.4

Results for CC(C)(C)C1=NN=C2c3ccccc3C(=O)C21 (centres undefined) ?
Mtb betalactam: -6; Mtb growth: -12%; RecA splice inh: -14

Results for O=C(CN1C(=O)C2C3C=CC(C4CC34)C2C1=O)Nc1cnc2ccccc2c1 (centres undefined) ?
Mtb betalactam: -2; Arbovirus inh: -15; Mtb growth: -2%

Results for CS(=O)(=O)N1CCC(C(=O)Nc2cccc(Cl)c2Cl)CC1 ?
Mtb betalactam: 0; RecA splice inh: 2.8

How did CC1CCc2c(sc3ncn(CCO)c(=O)c23)C1 (centres undefined) do in these assays?
Mtb betalactam: -2; Arbovirus inh: -2; Mtb growth: -1%; RecA splice inh: -0.5
